Bioassay records deposited in PubChem BioAssay by several laboratories.
GSH bead fluor – compound fluorescence on glutathione beads, profiling panel, artefact control, biophysical, 488/530 nm, flow cytometry; hit rate 0.25% among 190,000; AID 1776, 2009; fluorescence (KMESF) at 10 µM; GSH beads flow cytometry, compound fluorescence 488/530 nm; stronger effect = higher value; in the data active = fluorescence above about 89;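 also: glutathione beads carrying GST-tagged Bcl family fusion proteins plus one bare bead set; values are compound well signal with DMSO vehicle wells as background; inactives centre near 16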
Rac1 wt GTP bind – wildtype Rac1 GTP binding modulators, primary screen, biochemical, GST-Rac1 beads, flow cytometry, multiplex; fluorescent GTP binding; actives lie on both sides; 0 = cold GTP competed, 100 = untreated; GTP binding activity (% of control), % at 10 µM; hit rate 0.27% among 190,000; AID 757, 2007;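 active = GTP binding activity at least 20 points away from the 100% control level, either lower or higher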
Rab7 wt modul – modulators of GTP binding to Rab7, primary screen, biochemical, wildtype, multiplex bead flow cytometry; hit rate 0.055% among 190,000; GTP binding activity (percent of control), % at 10 µM; GST-Rab7 beads, fluorescent GTP binding; actives lie on both sides; untreated = 100%, excess cold GTP = 0%; AID 758, 2007;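 active = fluorescent GTP binding to Rab7 beads changed by at least 20 points from the 100% baseline, either direction, mostly lower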;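 also: median green fluorescence of bound Bodipy-FL-GTP per Rab7 bead population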
Pf gametocyte – late stage P. falciparum gametocyte viability inhibitors, primary screen, ATP luminescence, HTS. P. falciparum stage V gametocytes, 24 h. inhibition, % at 10.9 µM. hit rate 0.065% among 150,000;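 active = inhibition above the mean plus 3 SD of compounds within the control limits, set per campaign, cut at about 38% in these data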;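 also: 0% = DMSO wells and 100% = medium only without gametocytes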
Rab2A wt mod – modulators of GTP binding to Rab2A wildtype, primary screen, biochemical, dog, bead-based flow cytometry, multiplex; GST-Rab2 wt beads, Bodipy-GTP binding; GTP binding activity, % at 10 µM; hit rate 0.19% among 190,000;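 active = GTP binding activity at least 20 points away from 100%, either lowered or raised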;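 also: 0% = beads with excess unlabeled GTP and 100% = no-compound control corrected for plate trend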
Avidin bead fluor – green autofluorescence of compounds with avidin beads – biophysical, 488/530 nm, flow cytometry, artefact control, profiling panel. compound fluorescence 488/530 nm; stronger effect = higher value. fluorescence (KMESF) at 10 µM. hit rate 0.38% among 220,000. AID 1775, 2009; in the data active = fluorescence above about 47; also: inactives centre near 10
HRas wt GTP bind – modulators of GTP binding to HRas wildtype, primary screen, biochemical, bead-based flow cytometry, multiplex | hit rate 0.14% among 190,000 | GTP binding activity, % at 10 µM | GST-Ras wt beads, Bodipy-FL-GTP binding; actives lie on both sides | AID 759, 2007;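 active = GTP binding activity at least 20% away from the 100% baseline, either lowered as inhibitor or raised as activator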;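 also: 0% = unlabeled GTP competition control and 100% = no-compound control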
Target sequence (P01112 whole entry, looked up): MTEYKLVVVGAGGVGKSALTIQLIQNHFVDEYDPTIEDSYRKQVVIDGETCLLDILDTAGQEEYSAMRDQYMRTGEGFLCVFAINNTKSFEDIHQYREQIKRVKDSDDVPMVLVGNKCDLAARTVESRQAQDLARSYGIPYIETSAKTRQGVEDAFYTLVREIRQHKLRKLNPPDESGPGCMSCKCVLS
Rac1 mut GTP – GTP binding modulators of activated mutant Rac1, primary screen, biochemical, bead-based flow cytometry, multiplex, fluorescent GTP. percent activity (GTP binding), % at 10 µM. hit rate 0.11% among 190,000. AID 764, 2007. GST-Rac1 activated beads; actives lie on both sides; 100% means binding = to untreated wells;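 active = GTP binding at least 20 percentage points away from the 100% baseline, in either direction, so actives lie on both sides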
Cdc42 wt GTP – modulators of GTP binding to wildtype Cdc42, primary screen, biochemical, multiplex bead flow cytometry, Bodipy-GTP | Cell division control protein 42 homolog (Homo sapiens), P60953 | GST-Cdc42 beads; actives lie on both sides | percent activity (GTP binding), % at 10 µM | hit rate 0.2% among 190,000 | AID 761, 2007;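 active = percent activity GTP binding at least 20 points away from the 100% baseline, either down as inhibitor or up as activator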;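 also: median bead fluorescence of bound Bodipy-FL-GTP at 100 nM; 0% = excess unlabeled GTP control and 100% = no compound control; below 100% means less GTP binding so inhibitor and above means activator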
Target sequence (P60953 whole entry, looked up): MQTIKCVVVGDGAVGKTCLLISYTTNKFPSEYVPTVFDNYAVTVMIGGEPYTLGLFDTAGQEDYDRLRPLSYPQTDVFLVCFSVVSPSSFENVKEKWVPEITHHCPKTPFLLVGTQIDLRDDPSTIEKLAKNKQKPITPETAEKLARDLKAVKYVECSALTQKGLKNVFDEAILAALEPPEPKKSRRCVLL
Active calls of the source: *; · = no result given; & = joins results of further samples. These rows are one share of the data; count on the stated rates, not on these rows.

SMILES	GSH bead fluor	Rac1 wt GTP bind	Rab7 wt modul	Pf gametocyte	Rab2A wt mod	Avidin bead fluor	HRas wt GTP bind	Rac1 mut GTP	Cdc42 wt GTP
Nc1cccc(-c2nc3cc(S(=O)(=O)c4ccc5oc(-c6cccc(N)c6)nc5c4)ccc3o2)c1	45	102	98	-7	101	22	100	97	97
CCN(CC)CCNC(=O)c1nn(-c2ccc(C)cc2)c(=O)c2c1c1ccccc1n2C	16	98	98	12	95	9	97	96	100
CNc1nc(N/N=C/c2ccc([N+](=O)[O-])cc2)nc(Nc2ccccc2)n1	5	96	96	-2	96	0	97	96	97
Cc1cc(C)nc(Nc2ncc(O)n2-c2ccc(Br)cc2)n1	11	101	100	1	99	12	100	96	100
Cc1ccc(OCCn2c(C3CC(=O)N(Cc4ccccc4)C3)nc3ccccc32)cc1 (stereo not given)	19	104	100	·	100	7	101	100	100
Cc1ccc(OCc2nnc(SCC(=O)Nc3cc(C)on3)n2C)cc1	26	113	96	·	96	29	99	103	107
COc1cc(/C=C2\SC(=N)N(c3ccc4c(c3)OCO4)C2=O)cc(OC)c1O	9	93	98	-7	94	3	94	97	92
COc1ccc(/C=C2\N=C(C)N(c3ccc(C(=O)O)cc3)C2=O)cc1OC	8	94	93	18	93	8	92	95	94
COc1ccc(OC)c(-n2c(O)cnc2Nc2nc(C)cc(C)n2)c1	9	98	89	2	97	18	96	96	98
Cn1c(NCCCN2CCOCC2)nc2c1c(=O)n(Cc1ccc(Cl)c(Cl)c1)c(=O)n2C	40	107	102	11	101	6	103	100	103
O=C(Nc1ccc2oc(=O)ccc2c1)c1ccco1	21	100	96	7	95	22	97	97	97
CC1C/C(=N\NC(=S)NCc2ccccc2)CC(C)(C)C1 (stereo not given)	10	107	105	-1	102	8	105	101	104
CCOC(=O)c1cc(C#N)c(Oc2ccccc2OC)nc1-c1ccccc1	21	105	103	-26	103	31	102	101	105
COC(=O)C1=NN(c2cccc(C)c2)C2C(=O)N(c3ccccc3OC)C(=O)C12 (stereo not given)	12	100	97	-9	96	13	97	98	99
Cc1nc(SCC(=O)Nc2c(C)nn(C)c2C)c2cnn(-c3ccccc3)c2n1	13	100	100	·	99	37	101	99	101
COCC(=O)Nc1cc(C(=O)Nc2ccccc2C)ccc1Cl	15	99	104	·	102	11	103	99	101
CCOC(=O)C1=NN(c2ccccc2)C2C(=O)N(c3ccccc3OC)C(=O)C12 (stereo not given)	·	·	·	15	·	9	·	·	·
Cc1ccc(C(=O)COC(=O)c2ccc3c(c2)C(=O)N(c2cccc4ncccc24)C3=O)cc1	2	71*	84	8	71*	23	76*	75*	77*
CCOC(=O)c1c(-c2ccccc2)nnn1-c1nc(OCC)nc(N2CCCCC2)n1	16	101	102	·	103	11	105	100	104
COC(=O)CNC(=O)COC(=O)c1cc(F)c(F)cc1Cl	23	102	99	·	96	26	99	97	96
N#CC(C#N)=C(Nc1ccc(F)cc1)SCc1cccc(F)c1	9	103	97	4	97	5	99	99	101
Cn1c(OCc2ccc3c(c2)OCO3)nc2c1c(=O)n(Cc1ccc(Cl)c(Cl)c1)c(=O)n2C	33	93	91	11	88	40	90	90	92
Cc1ccc(C2(C)NC(=O)N(CC(=O)Nc3ccc4[nH]c(=O)[nH]c4c3)C2=O)cc1 (stereo not given)	·	·	·	-9	·	7	·	·	·
Cc1nc(-c2cccnc2)sc1C(=O)Nc1ccc(F)cc1F	24	96	92	-10	90	4	91	94	92
C=CCN1C(=O)C(CC(=O)Nc2ccc(OC)cc2)N(Cc2ccco2)C1=S (stereo not given)	9	106	100	-10	100	16	102	100	103

Next compounds.
SMILES	GSH bead fluor	Rac1 wt GTP bind	Rab7 wt modul	Pf gametocyte	Rab2A wt mod	Avidin bead fluor	HRas wt GTP bind	Rac1 mut GTP	Cdc42 wt GTP
c1cc2ccc3ccc(-n4cnnn4)c4ccc(c1)c2c34	12	95	99	·	97	13	97	95	96
CC(=O)c1ccc(NC(=O)CSc2nnc(-c3ccoc3C)n2Cc2ccccc2)cc1	28	106	101	·	101	4	103	100	105
COc1ccc(/C=C(/Sc2nnc(-c3ccc(Cl)cc3)o2)C(=O)O)cc1	14	97	102	-13	88	9	90	85	85
Cc1cc(CSc2ccccc2)ccc1NC(=O)c1ccc(Br)cc1	13	103	100	-6	99	10	99	101	103
CC(C)n1cc(/C=N/NC(=O)COc2cccc3cccnc23)c2ccccc21	11	102	99	10	97	16	97	97	97
Cc1cccc(OCCNC(=O)CSc2ccc(C(F)(F)F)cc2[N+](=O)[O-])c1	14	96	97	·	92	12	95	93	95
COc1ccc(/C=N/Nc2ncnc3c2[nH]c2ccc(C)cc23)c(OC)c1OC	·	·	·	13	·	7	·	·	·
Fc1cccc(Cl)c1CSc1ncn[nH]1	7	105	105	17	106	17	106	97	108
O=C(Nc1ccc2oc(=O)ccc2c1)c1cccnc1Cl	31	102	101	·	100	11	101	99	102
CCCCCCNCc1ccc(Br)cc1	23	102	93	-9	101	22	99	97	96
COc1nc(Nc2ccc3c(c2)OCO3)nc(OC)n1	23	102	99	·	98	9	100	97	101
CCCc1nc(-c2cc3ccc(C)cc3[nH]c2=O)no1	24	104	103	-10	100	29	99	99	103
Cc1cccc(C(=O)Nc2ccc(C)c(OC(=O)c3cccc(C)c3)c2)c1	41	102	98	·	98	9	98	99	99
Cn1c(=O)n(Cc2ccc(Cl)cc2)c(=O)c2c1nc1n2CCN1Cc1ccco1	3	96	96	·	93	8	96	98	99
C/C(CC(=O)NC1CCCCC1)=N\NC(=O)COc1ccc(C)cc1Br	13	96	104	23	95	4	95	90	94
CCCN(CCO)Cc1cccc(Cl)c1	32	105	100	·	100	12	103	101	104
N#Cc1cn(CC(=O)N2CCCC2)c2ccccc12	16	99	100	·	102	7	99	101	99
COc1ccc(F)cc1C(=O)C1CCCN(Cc2c[nH]c3ccccc23)C1 (stereo not given)	12	100	96	-1	90	10	94	96	92
CCOC(=O)Nc1cccc(Nc2ccccc2)c1	57	96	96	-7	91	7	94	95	97
CCOc1ccc(NC(=O)CC2C(=O)N(C)C(=S)N2Cc2ccco2)cc1 (stereo not given)	16	101	98	1	100	13	99	99	102
CC(Cc1ccccc1)C(=O)N1CCN(C)CC1 (stereo not given)	17	101	99	1	99	10	99	99	101
Cc1cc(-c2[nH]nc3c2C(c2cccc(O)c2)C(C#N)=C(N)O3)c(C)s1 (stereo not given)	20	99	97	·	95	15	96	95	96
COc1ccc2[nH]c3nc(SCc4nnc(-c5ccccc5)o4)nnc3c2c1	26	83	87	4	87	10	89	88	88
CC1=C(C(=O)OCc2ccccc2)C(c2cccnc2)n2nnnc2N1 (stereo not given)	26	108	104	-10	103	13	104	101	104
Cc1cc(C(F)F)n2ncc(C(=O)NCc3ccccc3)c2n1	17	96	97	-33	96	31	97	95	96

Next compounds follow:
SMILES	GSH bead fluor	Rac1 wt GTP bind	Rab7 wt modul	Pf gametocyte	Rab2A wt mod	Avidin bead fluor	HRas wt GTP bind	Rac1 mut GTP	Cdc42 wt GTP
Nc1c(C(=O)Nc2ccccc2)sc2nc(-c3ccco3)ccc12	11	91	91	-14	87	31	89	91	90
C#CCNc1nc(CC)nc2c1nnn2Cc1ccccc1F	39	100	101	·	99	8	99	96	101
COC(=O)Nc1ccc2c(c1)N(C(=O)CCN1CCN3CCCC3C1)c1ccccc1CC2 (stereo not given)	25&11	101	96	30	99	3&12	98&96	100&98	100&101
O=C1c2cccnc2C(O)N1Cc1cccs1 (stereo not given)	34	105	98	-12	101	15	100	101	104
Nc1cc(C(F)(F)F)ccc1-n1cccc1	10	98	94	-4	98	4	95	97	98
CCn1c(Cc2ccccc2)nnc1SCC(=O)Nc1ccccc1	8	98	100	14	97	19	100	97	98
COC(=O)c1sc(N2C(=O)c3oc4ccccc4c(=O)c3C2c2cccs2)nc1C (stereo not given)	13	102	99	-31	98	14	99	100	99
N#CC(c1ccccc1)(c1ncc(C(F)(F)F)cc1Cl)N1CCOCC1 (stereo not given)	35	109	103	·	102	11	106	101	105
Cn1c(NCc2ccco2)nc2c1c(=O)n(Cc1ccc(Cl)c(Cl)c1)c(=O)n2C	63	98	95	13	95	6	97	96	96
O=C(CC1C(=O)N(c2ccccc2)C(=O)N1Cc1ccco1)Nc1ccccc1 (stereo not given)	18	99	106	-13	100	4	100	96	98
CC(c1ccccc1)C1CC(=O)N(CC(=O)O)C1=O (stereo not given)	27	99	97	-24	100	11	97	97	102
CCOC(=O)c1sc(Nc2nc3c(F)cccc3s2)cc1C	4	100	97	8	101	6	100	101	99
Cc1cccc(OCC(=O)NNC(=O)CSc2ncc(C#N)c(N)n2)c1	11	94	102	3	95	15	94	94	92
COCCn1c(=NC(=O)CSCC(=O)NC2CCCCC2)sc2cc(OC)ccc21	25	103	96	-8	101	11	101	99	100
COc1ccc(CN2CCNC(=O)C2CC(=O)NCCC2=CCCCC2)cc1OC (stereo not given)	51	103	104	2	99	9	98	96	101
S=c1[nH]nc(-c2cccs2)n1/N=C/c1cn(-c2ccccc2)nc1-c1ccc(Cl)cc1	·	·	·	-12	·	7	·	·	·
CCc1cc(C(c2ccc(OC)c(OC)c2)N2CCOCC2)c(NC(=O)c2ccccc2)s1 (stereo not given)	13	101	99	·	102	14	100	99	102
CCc1cc(C(c2cccc(OC)c2)N2CCOCC2)c(NC(=O)c2ccccc2)s1 (stereo not given)	22	100	94	·	102	7	100	99	99
COc1cccc(OCC(=O)NNC(=O)c2ccc(-c3ccccc3)cc2)c1	9	99	96	·	97	9	100	98	99

Of the compounds above, these have a furan ring, fused or not.
SMILES	GSH bead fluor	Rac1 wt GTP bind	Rab7 wt modul	Pf gametocyte	Rab2A wt mod	Avidin bead fluor	HRas wt GTP bind	Rac1 mut GTP	Cdc42 wt GTP
O=C(Nc1ccc2oc(=O)ccc2c1)c1ccco1	21	100	96	7	95	22	97	97	97
C=CCN1C(=O)C(CC(=O)Nc2ccc(OC)cc2)N(Cc2ccco2)C1=S (stereo not given)	9	106	100	-10	100	16	102	100	103
CC(=O)c1ccc(NC(=O)CSc2nnc(-c3ccoc3C)n2Cc2ccccc2)cc1	28	106	101	·	101	4	103	100	105
Cn1c(=O)n(Cc2ccc(Cl)cc2)c(=O)c2c1nc1n2CCN1Cc1ccco1	3	96	96	·	93	8	96	98	99
CCOc1ccc(NC(=O)CC2C(=O)N(C)C(=S)N2Cc2ccco2)cc1 (stereo not given)	16	101	98	1	100	13	99	99	102
Nc1c(C(=O)Nc2ccccc2)sc2nc(-c3ccco3)ccc12	11	91	91	-14	87	31	89	91	90
Cn1c(NCc2ccco2)nc2c1c(=O)n(Cc1ccc(Cl)c(Cl)c1)c(=O)n2C	63	98	95	13	95	6	97	96	96
O=C(CC1C(=O)N(c2ccccc2)C(=O)N1Cc1ccco1)Nc1ccccc1 (stereo not given)	18	99	106	-13	100	4	100	96	98

Ordered by the number under Rab2A wt mod (largest number first): some entries from above.
Compound	Rab2A wt mod
CCOC(=O)c1cc(C#N)c(Oc2ccccc2OC)nc1-c1ccccc1	103
N#CC(c1ccccc1)(c1ncc(C(F)(F)F)cc1Cl)N1CCOCC1 (stereo not given)	102
C#CCNc1nc(CC)nc2c1nnn2Cc1ccccc1F	99
